YopH PTP inh = YopH tyrosine phosphatase inhibitors, primary screen, biochemical, fluorescence Ex485/Em525; YopH tyrosine phosphatase [Yersinia enterocolitica]; inhibition, %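 (about 10 µM by stock and volumes)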; actives 0.16% (n = 140,000);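 active means inhibition of 50% or more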;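 further: controls were vehicle for no effect and minimum signal wells for full effect; inactives centre near -20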
Mtb H37Rv = M. tuberculosis H37Rv growth inhibitors, H37Rv strain (AID 1626) | M. tuberculosis H37Rv growth inhibition; higher % means a stronger effect | inhibition, % at 10 µM; hits with a dose series show IC50 in µM | actives 0.95% (n = 220,000);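 active means confirmed in a dose series; inconclusive means inhibition above 80% but not taken into the dose series; inactive means below 80% or under 30% at every dose of the series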;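 further: bacteria incubated seven days before Alamar blue readout; 0% = bacteria only wells and 100% = bacteria with antibiotic wells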
Arbovirus inh = antivirals against arbovirus infection, primary screen, cell-based, full library, 10K replicate subset; inhibition, % at 10 µM; arbovirus infection cell-based antiviral screen; actives 0.37% (n = 200,000);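 active means inhibition from about 30%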;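 further: bluetongue infection of BSR cells; cell survival read as ATP light after 72 h; 0% = infected wells without compound and 100% = uninfected wells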
RecA intein inh = Mtb RecA intein splicing inhibitors, primary screen, biochemical, fluorescence, HTS | cell-free RecA intein splicing | inhibition, %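 (about 9 µM by stock and volumes)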 | actives 0.75% (n = 290,000) | AID 2221, 2009; in the data active means inhibition above about 30%; inconclusive means no clear call, values can overlap the other calls;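 further: 0% = vehicle wells and 100% = reference inhibitor control wells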
Target sequence (P9WHJ3 whole entry, looked up): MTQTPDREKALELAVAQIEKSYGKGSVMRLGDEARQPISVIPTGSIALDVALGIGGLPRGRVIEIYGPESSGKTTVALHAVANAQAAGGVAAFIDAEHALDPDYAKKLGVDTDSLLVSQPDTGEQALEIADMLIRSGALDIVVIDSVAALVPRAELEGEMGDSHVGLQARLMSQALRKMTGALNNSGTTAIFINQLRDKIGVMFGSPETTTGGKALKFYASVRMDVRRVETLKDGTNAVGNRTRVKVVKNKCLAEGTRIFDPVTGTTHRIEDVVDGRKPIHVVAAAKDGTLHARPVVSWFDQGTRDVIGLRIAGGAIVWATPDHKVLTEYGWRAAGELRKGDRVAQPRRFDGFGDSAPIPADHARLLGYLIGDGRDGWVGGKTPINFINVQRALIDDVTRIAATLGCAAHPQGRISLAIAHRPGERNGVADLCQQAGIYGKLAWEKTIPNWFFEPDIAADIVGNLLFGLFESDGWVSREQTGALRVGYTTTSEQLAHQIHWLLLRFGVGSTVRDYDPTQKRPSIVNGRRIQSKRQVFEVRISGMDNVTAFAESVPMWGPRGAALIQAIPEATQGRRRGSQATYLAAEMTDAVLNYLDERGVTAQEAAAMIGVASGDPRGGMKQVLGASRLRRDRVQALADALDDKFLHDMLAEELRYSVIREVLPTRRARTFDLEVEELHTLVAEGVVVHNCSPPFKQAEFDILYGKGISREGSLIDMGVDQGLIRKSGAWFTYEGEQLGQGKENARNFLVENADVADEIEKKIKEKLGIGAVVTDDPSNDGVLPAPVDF
Mtb betalactam = beta-lactam sensitization of Mtb H37Rv, H37Rv; M. tuberculosis H37Rv growth with meropenem, percent inhibition; hits of this screen are not shown here; inhibition, % at 25 µM; actives 0.27% (n = 330,000);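 active means about 74% or more and at least 40 points above the plate without the antibiotic, then above 30% in a dose series; inconclusive means first-round hits that could not be retested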;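 further: growth measured after seven days incubation then overnight dye step; 0% = bacteria only wells and 100% = bacteria with antibiotic; twin plates without the antibiotic show which effects depend on it; some results filed as inactive read as strong as hits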
Arbovirus inh repeat = further read-out of Arbovirus inh, marked with its call; inhibition, %; measured here: 10K subset replicate screen; many hits read low in the repeat;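 first of two repeat runs on a subset; 0% = infected and 100% = uninfected wells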
Numbers without * were called inactive; ? = inconclusive; . = no result given. These rows are one share of the data. The share of hits here may be higher or lower than overall.

SMILES	YopH PTP inh	Mtb H37Rv	Arbovirus inh	RecA intein inh	Mtb betalactam	others
CCc1ccc(C(=O)Nc2nnn(CC)n2)cc1	-23	-5%	18	-0.6	-3
COCCN(C(=O)CSc1nnc(Nc2ccccc2F)s1)c1c(N)n(Cc2ccccc2)c(=O)[nH]c1=O	-16	-4%	1	-1.4	-7
Cc1onc(-c2ccccc2)c1C(=O)N/N=C/c1c[nH]c2ccccc12	.	1%	4	2.1	-2
CCOc1ccc(-c2nc3n(c(=O)c2C#N)CCCS3)cc1	-11	-10%	3	-0.4	-11
CC(C)NC(NC(=O)/C=C/c1ccccc1)C(Cl)(Cl)Cl (stereo not drawn)	.	-2%	-8	-1.2	-4
CCOC(=O)N1CCC(NC(=O)C(C)n2c3ccccc3c3cnn(C)c(=O)c32)CC1 (stereo not drawn)	-13	3%	7	2.6	-3
COC(=O)C(CO)Nc1ncnc2onc(-c3ccc(F)cc3)c12 (stereo not drawn)	.	.	.	-0.5	-3
CCOC(=O)C1CCN(CCC(=O)Nc2cc(C)ccc2C)CC1	.	.	.	0.7	-2
CCNC(=O)NC(=O)C(C)OC(=O)c1oc2ccc(OCC)cc2c1C (stereo not drawn)	-10	17%	5	-1.0	-4
COc1ccccc1/C(C)=N/NC(=S)NCc1ccccc1	.	6%	-5	6.3	94
CC(c1ccco1)N(C(=O)c1ccc(F)cc1)c1ccccn1 (stereo not drawn)	.	3%	9	7.2	6
COc1ccc(/C=N/NC2=NCCCCC2)c(OC)c1	.	.	6	-3.2	-3
CCCCNC(=O)c1cn(C)c2ccc(S(=O)(=O)N3CCCC3)cc2c1=O	.	.	.	0.1	-9
CCCCN(C)C(=O)c1nc2ccccn2c1CN(C)Cc1csc(C)n1	.	4%	2	0.8	1
Cc1cc(C(F)(F)F)c(C#N)c(Sc2ccccc2)n1	9	4%	-3	-0.2	10
CN1CCN(C(=O)c2ccc(F)c(F)c2)CC1	.	.	.	5.0	-7
CC(=O)Nc1cccc(NC(=O)c2cc(-c3cccnc3)nc3ccc(Br)cc23)c1	1	6%	10	-1.0	51
O=C(O)/C=C/C(=O)NNc1ncnc2ccccc12	.	12%	.	1.0	-8
CN(Cc1ccccc1)C(=O)C1CCN(S(=O)(=O)c2ccc(-n3cnnn3)cc2)CC1	.	.	.	-0.4	2
O=C(N/N=C\c1cn[nH]c1-c1ccccc1)c1ccc([N+](=O)[O-])cc1	-4	-2%	0	0.8	-11
COc1cc(C(c2sc3nc(C)nn3c2O)N2CCOCC2)cc(OC)c1OC (stereo not drawn)	-14	3%	5	-0.7	10
COc1ccc(OCCn2cnc(Cl)c2Cl)cc1	.	-1%	.	-0.5	7
O=C(CN1C(=O)c2ccccc2S1(=O)=O)c1ccc(OC(F)F)cc1	.	.	.	-0.7	-8
O=C(COc1ccccc1)N1CCc2ccccc21	-1	-2%	0	8.3	2
COc1ccc(N2CCN(C(=O)c3c(Cl)cnn3C)CC2)cc1	.	.	.	-0.4	0

Of the compounds above, these have fluorine:
SMILES	YopH PTP inh	Mtb H37Rv	Arbovirus inh	RecA intein inh	Mtb betalactam	others
COCCN(C(=O)CSc1nnc(Nc2ccccc2F)s1)c1c(N)n(Cc2ccccc2)c(=O)[nH]c1=O	-16	-4%	1	-1.4	-7
COC(=O)C(CO)Nc1ncnc2onc(-c3ccc(F)cc3)c12 (stereo not drawn)	.	.	.	-0.5	-3
CC(c1ccco1)N(C(=O)c1ccc(F)cc1)c1ccccn1 (stereo not drawn)	.	3%	9	7.2	6
Cc1cc(C(F)(F)F)c(C#N)c(Sc2ccccc2)n1	9	4%	-3	-0.2	10
CN1CCN(C(=O)c2ccc(F)c(F)c2)CC1	.	.	.	5.0	-7
O=C(CN1C(=O)c2ccccc2S1(=O)=O)c1ccc(OC(F)F)cc1	.	.	.	-0.7	-8

(next part)
SMILES	YopH PTP inh	Mtb H37Rv	Arbovirus inh	RecA intein inh	Mtb betalactam	others
Cc1cc(NC(=O)CSc2nnc3ccccn23)no1	.	1%	2	-0.7	2
O=C(NS(=O)(=O)Oc1ccccc1F)OC[C@@H]1CCCN2CCCCC12 (stereo partly drawn)	.	.	.	-0.3	-1
CCOC(=O)c1ccc(NC(=O)C(=O)NCc2ccccn2)cc1	.	64%	-2	4.2	-5
Cc1cccc(NC(=O)CSc2n[nH]c(-c3ccncc3)n2)c1	-58	7%	0	-0.5	1
Cc1nn(Cc2nc(-c3cccs3)no2)c(C)c1Br	-38	15%	-16	1.5	2	Arbovirus inh repeat=-12
COc1ccc(Cc2nnc(SCC(=O)Nc3ccc(C)cc3)n(N)c2=O)cc1	.	.	.	-0.3	-6
COc1cc(NS(=O)(=O)c2ccc(C)cc2)ccc1-n1cnnn1	-38	-10%	4	-2.1	-2
CN(C)CCCOC(=O)CCc1ccccc1	-8	-1%	3	-1.9	-8
O=C(CNC(=O)c1ccc(Oc2ccccc2)cc1)OC1CCCCC1=O (stereo not drawn)	-3	.	6	0.4	-6
O=C(CNCC1CCCCC1)Nc1ccc(N2CCCCC2)cc1	.	5%	6	-4.0	-5
C=CCOc1ccc2ccccc2c1CNc1ncn[nH]1	-22	2%	20	1.5	6
CCN(CC)C(=O)c1cc(S(=O)(=O)N2CCCCC2)c[nH]1	.	.	.	0.7	-5
CC(C)C(C(=O)OCC(=O)c1ccc2c(c1)NC(=O)CO2)N1C(=O)c2ccccc2C1=O (stereo not drawn)	-21	1%	1	3.0	0
O=C(COc1ccccc1)NS(=O)(=O)c1ccc(Cl)cc1	.	.	.	0.3	-2
O=C(O)c1ccc(NC2=C/C(=N/S(=O)(=O)c3ccccc3)c3ccccc3C2=O)cc1	.	4%	-20	.	.
CCCCOc1cccc(C(=O)NC(=S)Nc2cccc(C(F)(F)F)c2)c1	-43	?	8	1.6	51
COc1cc(OC)c(C(=O)NCC(c2cccs2)N(C)C)cc1OC (stereo not drawn)	.	-1%	3	-1.0	-7
O=S1(=O)N(Cc2ccc(F)cc2)CCCN1Cc1ccccc1Cl	.	.	.	17	1
Cc1ccc(C(=O)N/N=C\c2ccc(-c3ccc([N+](=O)[O-])cc3)o2)cn1	.	?	.	-2.8	84
COC(=O)c1c(NC(=O)c2ccccc2F)sc2c1C(C(=O)OC)CC2 (stereo not drawn)	.	.	.	-9.4	1
Cc1c(Cl)cccc1NC(=S)NCc1ccc2c(c1)OCO2	-23	-1%	-9	7.8	0
CC(C)CNC(=O)CSc1n[nH]c(=O)n1CCc1ccccc1	.	.	.	-2.3	-5
CCc1ccc2[nH]c(=O)c(CN(Cc3ccc(F)cc3)C(c3nnnn3CCN3CCOCC3)C(C)C)cc2c1 (stereo not drawn)	-8	7%	-16	6.1	29
CCOC(=O)c1c(NC(NC(C)=O)C(Cl)(Cl)Cl)sc2c1CCCC2 (stereo not drawn)	-25	18%	-17	12	-3
O=C(NCC1CCCO1)c1ccc(CS(=O)(=O)c2ccc(Cl)cc2)o1 (stereo not drawn)	0	4%	2	-1.2	-16

Next entries follow.
SMILES	YopH PTP inh	Mtb H37Rv	Arbovirus inh	RecA intein inh	Mtb betalactam	others
CCCn1c(=O)c2c(nc3n2CCCN3CCc2ccccc2)n(C)c1=O	.	.	.	0.7	?
CCOc1ccccc1C1CC(=O)Nc2cc3c(cc21)OCCO3 (stereo not drawn)	-27	-2%	-15	.	10
CCCCCCOc1ccc(/C=c2\s/c(=C(/C#N)C(=O)NCc3ccco3)n(-c3ccccc3)c2=O)cc1	-12	-2%	-5	-1.1	-4
Fc1ccc(Cn2nnnc2C(c2cccs2)N2CCN(C3CCCCC3)CC2)cc1 (stereo not drawn)	.	-2%	-4	-0.2	-2
O=c1c(N2CCCCC2)coc2ccccc12	-1	-9%	1	-6.0	-9
Cc1cc(SCC(=O)NC2CCCCC2)nc2ccccc12	.	.	.	-1.1	-5
O=C(CSc1nncs1)N1CCN(C(=O)c2ccco2)CC1	.	.	.	1.3	-2
COc1ccc(C)cc1NC(=S)N1CCN(S(C)(=O)=O)CC1	-27	-3%	0	4.1	0
O=C(Nc1ccc(F)cc1F)c1ccccc1NC(=O)C1CC=CCC1C(=O)O (stereo not drawn)	.	.	.	0.5	-10
CCCOc1ccc(-c2c(C(=O)N/N=C(\C)c3cccnc3)nnn2-c2nonc2N)cc1	.	.	.	-1.8	8
COc1ccc(CN2CCN(C(=O)CN3C(=O)C4C5C=CC(C5)C4C3=O)CC2)c(OC)c1OC (stereo not drawn)	-31	3%	10	-2.7	7
COc1ccc(S(=O)(=O)N2CCC(C(=O)NCc3ccc(C)cc3)CC2)cc1	.	.	.	-3.2	1
CC(NC(N)=O)C(=O)OCc1ccc(Cl)cc1Cl (stereo not drawn)	-1	1%	7	-0.6	2
COC(=O)c1cccc2c1NC(=O)C2=O	.	1%	.	6.1	-1
CC(C)(O)C#Cc1ccc(C(=O)N2CCCC(CNS(=O)(=O)c3cccs3)C2)o1 (stereo not drawn)	.	.	.	-2.5	-3
O=C1CCCc2c1cnc1ncnn21	.	-1%	7	-2.0	0
NC(=O)c1ccc(N2CCN(c3ccccc3F)CC2)c([N+](=O)[O-])c1	.	2%	1	-1.9	-4
O=C(CCC(=O)N1CCN(c2ccccc2F)CC1)N1CCN(c2ccccc2)CC1	.	.	.	-1.0	2
CC(C)COc1ccc(C(=O)NC(CC(C)C)C(=O)O)cc1 (stereo not drawn)	-42	-7%	-1	-0.5	-9
COc1ccc(NC(=O)CSc2nncc3ccccc23)cc1	.	78%	7	-2.3	75
O=C(NC1CCS(=O)(=O)C1)c1ccc(S(=O)(=O)N2CCCC2)cc1 (stereo not drawn)	.	.	.	2.7	?
CCOC(=O)C1=C(O)CSC1=Nc1cccc(Cl)c1	-5	2%	-4	0.1	-5
O=C(O)CNC(=O)C(Cc1ccccc1)NC(=O)OCc1ccccc1 (stereo not drawn)	.	-8%	9	0.2	-7
COc1cc(/C=N\NC(=O)CNC(=O)C2COc3ccccc3O2)ccc1O (stereo not drawn)	-14	.	-7	-1.1	0
C/C(=N\Nc1ccc(F)cc1F)c1cccs1	.	?	-31	4.3	83

4 neighbouring compounds out of the list so far, for reference:
SMILES	YopH PTP inh	Mtb H37Rv	Arbovirus inh	RecA intein inh	Mtb betalactam	others
CCCn1c(=O)c2c(nc3n2CCCN3CCc2ccccc2)n(C)c1=O	.	.	.	0.7	?
CCOc1ccccc1C1CC(=O)Nc2cc3c(cc21)OCCO3 (stereo not drawn)	-27	-2%	-15	.	10
CCCCCCOc1ccc(/C=c2\s/c(=C(/C#N)C(=O)NCc3ccco3)n(-c3ccccc3)c2=O)cc1	-12	-2%	-5	-1.1	-4
Fc1ccc(Cn2nnnc2C(c2cccs2)N2CCN(C3CCCCC3)CC2)cc1 (stereo not drawn)	.	-2%	-4	-0.2	-2

The list continues.
SMILES	YopH PTP inh	Mtb H37Rv	Arbovirus inh	RecA intein inh	Mtb betalactam	others
CCOc1ccc(N(CC(=O)Nc2ccccc2OCC)S(=O)(=O)c2c(C)noc2C)cc1	.	.	.	6.6	0
CCCCNC(=S)N=Nc1c(O)[nH]c2ccccc12	.	?	-6	.	5
COc1ccccc1N1CCN(/N=C/C(Cl)=C/c2ccccc2)CC1	.	-1%	.	6.6	8
CC(=O)c1ccc(NC(=S)NC(=O)CC(C)C)cc1	-3	6%	-12	0.8	0
Fc1ccc(-c2nnc(CN3CCN(c4ncc(C(F)(F)F)cc4Cl)CC3)o2)cc1	-81	-6%	15	4.8	6
COC(=O)c1[nH]c2ccc(C)cc2c1NC(=O)CN1CCc2cc(OC)c(OC)cc2C1	-36	0%	13	2.5	53
Cc1c(C(=O)N2CCOCC2)[nH]c2c1C(=O)CC(c1ccccc1Cl)C2 (stereo not drawn)	-3	2%	-20	3.1	-1
COc1cccc(OCc2cc(C(=O)N3CCNC(=O)C3Cc3ccccc3)no2)c1 (stereo not drawn)	.	.	.	1.3	5
CCCOC1CCCN(C(=O)c2cc(COc3ccc(-n4cncn4)cc3)on2)C1 (stereo not drawn)	.	.	.	3.1	1
CC(=O)c1cccc(NC(=O)CC2Oc3ccc(C)cc3NC2=O)c1 (stereo not drawn)	-44	3%	-8	0.4	-10
Cc1cc(C)cc(Oc2coc3cc(O)ccc3c2=O)c1	.	.	.	-0.4	0

Five compounds picked at random from those above:
SMILES	YopH PTP inh	Mtb H37Rv	Arbovirus inh	RecA intein inh	Mtb betalactam	others
CC(=O)c1ccc(NC(=S)NC(=O)CC(C)C)cc1	-3	6%	-12	0.8	0
Cc1cc(C)cc(Oc2coc3cc(O)ccc3c2=O)c1	.	.	.	-0.4	0
CCOc1ccc(N(CC(=O)Nc2ccccc2OCC)S(=O)(=O)c2c(C)noc2C)cc1	.	.	.	6.6	0
COc1cccc(OCc2cc(C(=O)N3CCNC(=O)C3Cc3ccccc3)no2)c1 (stereo not drawn)	.	.	.	1.3	5
COc1ccccc1N1CCN(/N=C/C(Cl)=C/c2ccccc2)CC1	.	-1%	.	6.6	8

Screening results deposited in PubChem by several laboratories.
